# Cruzain inh noDet: inhibitors of Trypanosoma cruzi cruzain without detergent. 200,000 tested, 2.3% active. AID 1476. Potency, µM, for inactives: max response, negative = inhibition, usual class: inhibitors. purified cruzain, Z-FR-AMC fluorescence, no detergent. P25779; active = well fitted curve in the direction sought with a large enough effect; inconclusive = small, poorly fitted or top-dose-only effect, or another doubt; inactive = no such curve, though single readings can be large; an effect the other way counts as inactive or inconclusive;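 note: plate controls were enzyme without inhibitor for no effect and buffer without enzyme for full effect; nearly all actives have a fitted effect of over 40% in size; top concentration of the series not given in the record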
# Target sequence (P25779 123-467 limits assumed): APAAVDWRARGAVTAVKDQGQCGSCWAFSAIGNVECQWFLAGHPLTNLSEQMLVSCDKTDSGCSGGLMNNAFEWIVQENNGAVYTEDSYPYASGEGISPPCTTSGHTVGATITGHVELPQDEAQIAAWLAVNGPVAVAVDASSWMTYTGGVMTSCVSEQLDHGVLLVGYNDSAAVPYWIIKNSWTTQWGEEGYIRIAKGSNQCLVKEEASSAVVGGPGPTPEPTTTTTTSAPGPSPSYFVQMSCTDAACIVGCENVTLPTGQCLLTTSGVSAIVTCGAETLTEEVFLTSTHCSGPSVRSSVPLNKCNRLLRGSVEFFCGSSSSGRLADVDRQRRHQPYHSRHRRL
#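 Detergent-free condition (0.00005% Triton X-100) in acetate buffer pH 5.5 with DTT. 1.5 nM enzyme and compound were pre-mixed 15 min, then 2 uM Z-FR-AMC substrate added; reaction progress from fluorescence change between first and third reads (60 s).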
# 2A StopGo: FMDV 2A StopGo reporter, luciferase signal; human cells with a luciferase reporter of 2A StopGo recoding; control for the full effect not named in the record; Potency, µM (top dose mostly 57.9 µM), for inactives: at the top dose signal change, negative = less light; 410,000 tested, 1.2% active; AID 1159524; active = well fitted falling curve with a large enough effect; inconclusive = small, poorly fitted or top-dose-only effect; inactive = no such curve, though single readings can be large or run the other way; tested in HEK293T cells; note: % is set by controls: 0 for no effect and ±100 for the full control effect; nearly all actives have a fitted effect of over 45% in size; luciferase light after 4 h
# LASV entry inh: blocks Lassa virus binding to or entry into cells; Lassa virus pseudotype entry inhibition, cell reporter; control for the full effect not named in the record; Potency, µM (titrated, usually from 37.9 µM), for inactives: top-dose activity change, negative = inhibition, most hits filed as inhibitors; 300,000 tested, 1.2% active; AID 540256; active means well fitted inhibition curve with a large enough effect; inconclusive means small, poorly fitted or top-dose-only effect, or effect the other way; inactive means flat fitted curve, though single readings scatter; tested in HEK293 cells; note: % is set by controls: 0 for no effect and ±100 for the full control effect; nearly all actives have a fitted effect of over 50% in size; luciferase read-out
# SARS PLpro yeast: blocks SARS-CoV papain-like protease in a yeast assay. S. cerevisiae expressing SARS-CoV PLpro, growth rescue; control for the full effect not named in the record. Potency, µM (titrated, usually from 32.9 µM), without a hit: top-dose activity, positive = growth rescue. 330,000 tested, 0.19% active; note: 0% is about no effect; nearly all actives have a fitted effect of over 55% in size; growth read by luminescence after 48 h
# Marburg entry inh: inhibitors of Marburg virus binding or cell entry | Marburg virus pseudotyped entry inhibition, cell reporter; control for the full effect not named in the record; about a third of the inactives were read at about 46 µM | AID 540276 | 300,000 tested, 1.8% active | Potency, µM (top dose mostly 37.8 µM), without a hit: at the top dose activity change, negative = inhibition, most hits filed as inhibitors; active = well fitted inhibition curve with a large enough effect; inconclusive = small, poorly fitted or top-dose-only effect, or effect the other way; inactive = flat fitted curve, though single readings scatter; tested in HEK293 cells; about a fifth of its hits are not listed in these tables; note: % is set by controls: 0 for no effect and ±100 for the full control effect; luciferase read-out
# Cruzain Triton: cruzain (T. cruzi) inhibition with detergent | P25779 | purified cruzain, Z-FR-AMC fluorescence, 0.01% Triton | Potency, µM, inactives show max response, negative = inhibition, usual class: inhibitors | 200,000 tested, 0.43% active | AID 1478; active = well fitted curve in the direction sought with a large enough effect; inconclusive = small, poorly fitted or top-dose-only effect, or another doubt; inactive = no such curve, though single readings can be large; an effect the other way counts as inactive or inconclusive;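 note: plate controls were neutral wells for no effect and buffer without enzyme for full effect; nearly all actives have a fitted effect of over 40% in size; top concentration of the series not given in the record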
#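 Steps: dispense cruzain (1.5 nM final) in acetate buffer pH 5.5 with DTT and 0.01% Triton X-100; pin-transfer compounds; incubate 15 min RT; add Z-FR-AMC (2 uM final); read fluorescence every 30 s, using the 60 s intensity change.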
# NS1 function inh: influenza NS1 inhibition; S. cerevisiae slowed by influenza A NS1, growth recovery by OD600; 270,000 tested, 0.4% active; Potency, µM (titrated, usually from 46.1 µM), for the others: top-dose activity, positive = more growth; AID 2326; note: actives are rising curves; nearly all actives have a fitted effect of over 50% in size
#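 Recovery from NS1-induced slow growth read by OD600 in budding yeast switched to galactose assay medium (pH 6.0, -URA) at 1:100 dilution. Compound 23 nl per well; the matching strain lacking NS1 serves as control.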
# RE007 growth inh: less growth of the S. pombe RE007 Vpr strain. Potency, µM (doses to about 92.2 µM), inactives show at the top dose activity change, negative = less growth. S. pombe RE007 Vpr strain, BacTiter-Glo ATP luminescence, 24 h; control for the full effect not named in the record. 360,000 tested, 0.21% active; active = well fitted falling curve with a large enough effect; inconclusive = small, poorly fitted or top-dose-only effect; inactive = no such curve, though single readings can be large or run the other way;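 note: % is set by controls: 0 for no effect and ±100 for the full control effect; nearly all actives have a fitted effect of over 50% in size; the assay follows cell death caused by Vpr and the record does not say whether a fall means rescue or toxicity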
#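 Fission yeast strain RE007, carrying one chromosomally integrated HIV-1 vpr copy, was seeded at OD 0.01 in PMG+AL medium with 23 nL pinned compound. After 24 h at 30 °C and 99% humidity, viability was read by BacTiter-Glo luminescence.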
# The depositor's hits bear a star; ? = inconclusive; . = not tested or not shown; & = joins results of further samples; [ ] = dose if it differs, or a comment. Unless noted, calls come from the whole dose curve; as a rule, active means well fitted rising curve with a large enough effect; inconclusive means small, poorly fitted or top-dose-only effect; inactive means no such curve, though single readings can be large or run the other way. Potency is the fitted concentration of half-maximal effect.
SMILES,Cruzain inh noDet,2A StopGo,LASV entry inh,SARS PLpro yeast,Marburg entry inh,Cruzain Triton,NS1 function inh,RE007 growth inh
CC(Cc1c[nH]c2ccccc12)C(=O)NCc1ccco1 (stereo unspecified),.,-13%,-6%[46.1 µM],1%,-21%[46.1 µM],.,4%,-4%
CCOc1ccc(NC(=S)NC(=O)/C=C/c2ccc(C)cc2)c([N+](=O)[O-])c1,?,-22%,?,-17%,?,0.9%,-11%,0%
O=C(CCS(=O)(=O)c1ccccc1)Nc1nc2c(s1)COc1ccccc1-2,-18%,?,.,-4%,.,-13%,1%,-6%
O=C(NCc1ccccc1)C1=C[C@@H](c2ccc(Br)cc2)C[C@@H](OCc2ccc(CO)cc2)O1,.,0%,.,-4%,.,.,5%,23%
COc1ccc(C(=O)Nc2nnc(Cc3cccs3)s2)cc1OC,?,-25%,-17%,-11%,-18%,4.0%,7%,0%
CCOc1cccc(=O)c2c(C)n(-c3ccc(C(=O)O)cc3)c(C)c12,.,-18%,8%,0%,20%,.,-1%,4%
COc1ccc(Cn2c(=O)[nH]c3cc(C(=O)N4CCN(c5ccccc5F)CC4)ccc3c2=O)cc1,.,-10%,.,-2%,-1%[46.1 µM],.,22%,4%
Cc1cc(S(=O)(=O)N2CCN(c3ccccn3)CC2)ccc1F,.,5%,.,5%,.,.,-10%,-11%
CC(NS(=O)(=O)c1cccc(S(=O)(=O)c2ccccc2)c1)C(=O)O (stereo unspecified),-3%,-10%,-1%,4%,?,3.2%,7%,6%
Cn1c(=O)c2c(n(C)c1=O)=NC1(CCCCC1)N=2,-6%,7%,9%,5%,-10%,-3.7%,6%,-15%
CC1(C)C=C2[C@H]3CC[C@@H]4[C@@]5(C)CCC(=O)C(C)(C)[C@@H]5CC[C@@]4(C)[C@]3(C)CC[C@@]2(C(=O)O)CC1,?,-1%,7%,-1%,-28%,1.1%,16%,2%
Cc1ccc(N(CC(=O)NCc2ccco2)C(=O)CCC(=O)Nc2nccs2)cc1C,.,6%,-8%,2%,-27%,.,12%,5%
O=C(COc1ccc([N+](=O)[O-])cc1)N1CCc2ccccc2C1,.,3%,17%,0%,2%,.,1%,3%
CC(NC(=O)c1cccs1)c1n[nH]c(=S)n1C (stereo unspecified),16%,-16%,12%,-2%,-27%,0.6%,7%,-3%
COc1ccc(C2=NS(=O)(=O)N(C)C(C(=O)NC3CCCC3)=C2)cc1OC,.,-23%,.,7%,.,.,7%,8%
COC(C(=O)Nc1ccnn1C1CCN(Cc2ccc(C)o2)CC1)c1ccccc1 (stereo unspecified),.,-1%,?,1%,-3%,.,11%,7%
Cc1nc(SCC(=O)NC(=O)NC(C)(C)C)nc(C)c1C,.,-7%,.,-2%,.,.,-5%,1%
Cc1cc(C)n2nc(C)c(Br)c2n1,.,-1%,-1%,-6%,?,.,.,-1%
C=CCCCCCCCCC(=O)NN,-5%,.,1%,-13%,-10%,2.3%,7%,2%
CCc1nc(C#N)c(N2CCCCC2)o1,-6%,-2%,11%,?,?,0.3%,8%,32%
O=C(C(=O)c1cccnc1)c1cccnc1,.,-18%,.,-1%,.,.,-8%,-16%
O=C(CSc1cn[nH]n1)Nc1ccc(O)c(C(=O)O)c1,.,-3%,-8%[46.1 µM],-1%,-6%[46.1 µM],.,4%,-5%
CCSc1nnc2n1C(C)(C)Cc1ccccc1-2,10%,-3%,.,9%,.,4.3%,-16%,.
O=C(CCN1CCN(c2ccccc2)CC1)NNC(=O)c1cccc2ccccc12,9%,0%,-22%,4%,6%,-1.4%,10%,.
O=C(NCc1csc2ccc(Cl)cc12)Nc1ccccc1,.,21%,.,0%,.,.,2%,-6%
O=C(CCNC(=O)c1ccc([N+](=O)[O-])cc1)Nc1ccc(F)cc1F,.,-8%,.,1%,.,.,5%,1%
CC(=O)c1cccc(NC(=O)CNC(=O)c2sc3ccccc3c2Cl)c1,.,31%[activator],0%,.,?,.,.,-23%
Cc1ccsc1/C=C1\SC(=S)N(CC2CCCO2)C1=O (stereo unspecified),.,39%[activator],12%,0%,17%,.,-2%,-8%
CC(C)CNS(=O)(=O)c1ccc(CCC(=O)Nc2ccc3c(c2)OCCO3)cc1,-2%,43%[activator],-18%,1%,-4%,2.0%,-5%,0%
COc1ccc(CNC(=O)C/C(C)=N/NC(=O)COc2ccccc2)cc1,.,1%,-1%,4%,8%[46.1 µM],.,2%,20%
Cc1ccnc(N(C(=O)Nc2ccccc2)C2=NCC(C)(C)S2)c1,.,29%,?,0%,5%[46.1 µM],.,4%,-1%
CCOc1ccc(OCC)c(NS(=O)(=O)c2ccc(-c3coc(C)n3)cc2)c1,?,-24%,-3%[46.1 µM],.,.,-6.8%,.,.
CCCn1c(SCC(=O)N2c3ccccc3CC2C)nnc1-c1ccco1 (stereo unspecified),3%,-14%,14%,16%,4%[46.1 µM],1.3%,-9%,13%
COc1ccc(-c2nnc(NC(=O)c3ccccc3[N+](=O)[O-])s2)c(OC)c1,.,-11%,.,-1%,.,.,5%,20%
COc1ccc(S(=O)(=O)N(C)CC(=O)Nc2cccc(C(C)=O)c2)cc1C,-3%,-27%,-12%,.,-14%,-3.4%,-4%,16%
O=S(=O)(NC1=NCCC1)c1ccc(F)cc1,-5%,-1%,-17%,3%,-1%[46.1 µM],9.6%,-1%,3%
NS(=O)(=O)c1ccc(N/N=C/c2ccc(O)c(O)c2O)c([N+](=O)[O-])c1,.,8%,-21%,9%,?,.,12%,-18%
NNC(=O)CSc1c(-c2ccccc2)c2cc(Cl)ccc2[nH]c1=O,.,-15%,4%[46.1 µM],0%,9%[46.1 µM],.,17%,-5%
S=c1[nH]nc(COc2ccccc2)n1/N=C/c1ccc(Cl)c(Cl)c1,.,0%,.,-1%,.,.,1%,-7%
CC(C(=O)NN)c1ccc([N+](=O)[O-])cc1 (stereo unspecified),.,-10%,-2%[46.1 µM],0%,-2%[46.1 µM],.,4%,1%
CCCCOc1ccc(C(=O)NCCc2csc(-c3ccc(OC)cc3)n2)cc1,13%,?,?,.,.,-7.1%,.,.
COc1ccc(S(=O)(=O)NCC(=O)N(CC(=O)NC(C)(C)C)Cc2cccs2)cc1,.,29%,-9%[46.1 µM],1%,-11%[46.1 µM],.,-2%,-11%
O=C(CCc1ccccc1)Nc1ccc(NC(=O)C2CC2)nc1,0%,12%,12%,3%,25%,4.7%,-100%,-13%
COc1cc(/C=C2\SC(c3ccccc3)=NC2=O)cc(Cl)c1O,.,?,-17%,2%,?,.,6%,-3%
COc1ccc(C)cc1NC(=O)CCNC(=O)Cn1ccc2ccccc2c1=O,-9%,-11%&-10%,?,-1%,3%&-1%[46.1 µM],1.7%,-4%,1%
Oc1ccc(Cl)cc1/C=C/c1ccc2cccc(O)c2n1,.,28%,-16%[46.1 µM],-6%,?,.,-77%,?
Cc1cccc(N/C(N)=N/c2nc(CSc3ccc(Cl)cc3)cc(=O)[nH]2)c1,.,-24%,.,0%,.,.,-3%,6%
O=C(c1cnc2sccn2c1=O)N1CCCc2ccccc21,-14%,0%,.,-1%,.,0.2%,-1%,3%
Cc1oc2ncn(CC(C)C)c(=O)c2c1C(=O)N(CCN(C)C)Cc1ccccc1,-8%,-14%,23%[46.1 µM],.,.,-0.2%,.,.
Cc1cc(NC(=O)COC(=O)CCS(=O)(=O)c2cc(Cl)ccc2Cl)no1,.,-15%,-5%,-13%,-16%[46.1 µM],.,-1%,-15%
COc1ccc2nc(NC(=O)C3CCCN(S(=O)(=O)c4cccs4)C3)sc2c1 (stereo unspecified),25µM*,0%,?,-6%,?,-2.0%,1%,16%
O=C(Cc1c(F)cccc1Cl)Nc1ccc(S(=O)(=O)Nc2nccs2)cc1,.,41%[activator],.,1%,0%[46.1 µM],.,-2%,1%
O=C(CCC(=O)N1CCOc2ccc(Cl)cc21)N1CCN(c2ccccn2)CC1,.,?,.,-8%,.,.,-33%,-11%
COc1cc(C)ccc1OCc1cc(C(=O)N2CCC(c3ccc(F)cc3)C2)no1 (stereo unspecified),.,63%,.,3%,.,.,-16%,10%
CN(C)S(=O)(=O)c1ccc(Cl)c(NC(=O)COC(=O)c2cc(-c3ccccc3)nc3ccccc23)c1,?,-22%,12%,-2%,0%,-4.1%,?,-10%
O=C1N=c2ccccc2=C1c1sc(=S)n(NC(=O)c2ccccc2)c1O,.,-6%,4%[46.1 µM],-5%,7%[46.1 µM],.,3%,-4%
COC(=O)c1cnc2ccccc2n1,-4%,45%[activator],-10%,2%,22%,-4.4%,5%,0%
COCCNC(=O)Cn1nc(Cc2ccncc2)c2ccccc2c1=O,.,-13%,27%[46.1 µM],-1%,1%[46.1 µM],.,8%,18%
Nc1cc(N)nc(SCC(=O)NC(=O)NC2CCCC2)n1,.,-17%,7%,-4%,26%,.,.,12%
CC(C)(C)NC(=O)C(Cc1ccccc1)N1C(=O)c2ccccc2C1=O (stereo unspecified),.,-2%,.,?,.,.,8%,-13%

# Arranged by molar mass (ascending): some entries from above
SMILES,Cruzain inh noDet,2A StopGo,LASV entry inh,SARS PLpro yeast,Marburg entry inh,Cruzain Triton,NS1 function inh,RE007 growth inh
COC(=O)c1cnc2ccccc2n1,-4%,45%[activator],-10%,2%,22%,-4.4%,5%,0%
Oc1ccc(Cl)cc1/C=C/c1ccc2cccc(O)c2n1,.,28%,-16%[46.1 µM],-6%,?,.,-77%,?
COc1ccc(C)cc1NC(=O)CCNC(=O)Cn1ccc2ccccc2c1=O,-9%,-11%&-10%,?,-1%,3%&-1%[46.1 µM],1.7%,-4%,1%

# Screening data (PubChem BioAssay)

# Outcome played no part in choosing rows; any-hit rate near 4.7%.
